Source: PubChem BioAssay (ICCB-Longwood Screening Facility, Harvard Medical School)
GIV-Gai inh = blocks GIV peptide binding to rat Galpha-i3 | P08753 | percent of control (FP), % (no concentration beside the values) | 0.42% of 210,000 active | Galpha-i3/FITC-GIV peptide fluorescence polarization, 90 min; hits give low values; scaled: aluminum fluoride 0%, vehicle 100%;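 active = replicate mean at 85% of control or lower, very high polarization wells dropped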;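 note: wells of about 15 µL received 100 nL stock; the first replicate is given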
Target sequence (P08753 whole entry, looked up): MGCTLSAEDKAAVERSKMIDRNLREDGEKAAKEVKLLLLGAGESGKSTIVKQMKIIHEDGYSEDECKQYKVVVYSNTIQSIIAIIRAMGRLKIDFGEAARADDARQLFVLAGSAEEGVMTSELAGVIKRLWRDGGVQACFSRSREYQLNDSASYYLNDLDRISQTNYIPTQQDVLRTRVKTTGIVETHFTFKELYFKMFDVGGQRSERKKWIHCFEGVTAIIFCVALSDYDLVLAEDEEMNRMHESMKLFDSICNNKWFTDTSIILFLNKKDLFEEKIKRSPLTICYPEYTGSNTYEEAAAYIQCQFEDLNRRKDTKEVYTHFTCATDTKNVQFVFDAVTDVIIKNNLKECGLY
Sa growth inh = S. aureus growth inhibition. 0.53% of 170,000 active. relative growth, % (no concentration beside the values). S. aureus RN4220 growth, OD600, 20 h, 42 °C; hits give low values;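 active = growth at 42 °C up to 50% and 20 or more points under that at 30 °C, or under 10% at both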;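 note: 300 nL library stock went into each well; scaled to the means of positive and negative controls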
HCMV UL50-53 inh = cytomegalovirus nuclear egress complex inhibition | AID 1918969 | inhibition, % (test concentration not listed) | HTRF UL50-UL53 interaction, normalized percent inhibition | 0.15% of 190,000 active;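 active = both replicates at 50% or more, plus weaker picks with an unusually low signal ratio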;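 note: stock transfer was 100 nL into about 20 µL; 0% = negative control wells and 100% = wells with untagged competitor protein; inactives centre near -12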
Sa growth inh second temp = further read-out of Sa growth inh, marked with its call; relative growth, %; measured here: growth at 30 °C;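 optical density after 20 h as mean of two plates; 100% = untreated growth and lower means inhibition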
Starred values were filed as active, the others as inactive; . = not tested or not shown; & = joins results of further samples. An unsorted share of the library; overall some 0.8% were active at least once.

SMILES	GIV-Gai inh	Sa growth inh	Sa growth inh second temp	HCMV UL50-53 inh
FC(F)(F)c1[nH]ncc1-c1nnnn1-c1ccccc1	102	92	94	-19
O=CN1CCN(C(=O)CCc2ccccc2)CC1	109	108	98	0
Cc1ccc(CN(C)c2nc(CN3CCOCC3)nc3sc4c(c23)CCC4)o1	.	124	85	2
CCOC(=O)c1cc(C#N)c(=S)[nH]c1N	.	74	83	-28
Cc1cc(N2CC(=O)N(CCc3ccccc3)C(=O)C2)n2ncnc2n1	96	96	89	-3
CC1CC(=O)N(Cc2ccccc2F)c2ccccc2S1(=O)=O (stereo not drawn)	103	96	90	-14
Cc1c(C(=O)NCC(c2cccs2)N2CCCC2)oc2ccc(Br)cc12 (stereo not drawn)	104	.	.	-10
Cc1ccc(-c2nccc(N3CCC(C(=O)NC4CCCc5ccccc54)CC3)n2)cc1 (stereo not drawn)	104	.	.	-6
O=C(CCN1C(=O)C2CC=CCC2C1=O)NCc1ccccc1 (stereo not drawn)	111	94	97	26
O=C(Nc1ccccc1F)c1oc2ccccc2c1NC(=O)c1c(F)cccc1F	103	110	72	-10
CCOc1ccc(CCNC(c2nnc(-c3ccccc3)o2)c2ccccc2Cl)cc1OCC (stereo not drawn)	106	112	96	10
Fc1ccc(-c2cn3ccccc3n2)cc1	101	116	67	-23
Cc1ccc2c(c1)c(-c1ccccc1)c(-c1ccccc1)n2CC(O)CNCc1ccco1 (stereo not drawn)	108	40	25	.
COC(=O)c1cccc(COC(=O)c2cc(=O)[nH]c3ccccc23)c1	104	116	76	-7
CNC(=O)c1cc(Sc2nnc(C)s2)nc2ccccc12	103	101	93	2
CCOC(=O)C1CCN(CCC(=O)Nc2ccccc2Cl)CC1	106	106	104	28
O=C(Cc1cccs1)NC1CC(=O)N(c2ccc(F)cc2)C1 (stereo not drawn)	96	97	94	.
c1ccc(-c2cc3ccccc3nn2)cc1	102	101	76	-54
COc1cccc(C(=O)NCC(c2ccc3c(c2)OCO3)N2CCN(C)CC2)c1 (stereo not drawn)	105	121	100	.
O=C(COC(=O)C12CC3CC(CC(O)(C3)C1)C2)c1ccc[nH]1	.	101	80	-6
CCCNC(=O)c1nn(C)c2c1CCc1sccc1-2	107	97	81	-35
COc1ccc(NC(=O)CS(=O)(=O)c2ccc3c(c2)n(C)c(=O)n3C)cc1	98	.	.	-28
COc1ccc(-n2ncc3c2CC(c2ccc(F)cc2)CC3=O)cc1 (stereo not drawn)	102	.	.	-13
COc1ccc(CC(=O)Nc2ccc(-c3nc4ccccc4s3)c(C)c2)cc1OC	96	95	99	.
CCn1c(=O)c(-c2noc(C(=O)N3CCN(c4ccccc4)CC3)n2)nn(-c2ccccc2)c1=O	101	.	.	-90
CCn1c(=O)c2sccc2n2c(CCC(=O)N3CCN(C4CCCCC4)CC3)nnc12	96	.	.	-10
O=C(NCc1ccc(F)cc1)C1CCN(c2ncnc3c2nc2n3CCCCC2)CC1	107	119	104	.
O=c1c2sccc2nc(SCc2nc(-c3ccc4c(c3)OCO4)no2)n1C1CC1	104	.	.	-25
O=C(OCc1cc(=O)oc2cc3c(cc12)CCC3)c1ccccn1	.	77	94	-29
CC1CCCCN1C(=O)Cc1ccc(Br)cc1 (stereo not drawn)	99	99	96	-7
Cc1ccc2oc(-c3ccc(Cl)c(NC(=O)c4cc5ccccc5o4)c3)nc2c1	105	97	80	-13
Cc1onc(-c2c(Cl)cccc2Cl)c1C(=O)NC(C)(C)CO	102	100	60	.
COc1ccc(CCNc2nnc(-c3ccccc3)c(=O)n2C)cc1OC	100	108	89	-8
O=C1[C@@H]2CSC(c3ccc(F)cc3)N2C(=O)N1c1ccc(Cl)cc1 (stereo partly drawn)	105	111	86	3
Cc1nn(CCC(N)=O)c2nc(-c3cccnc3)cc(C(F)(F)F)c12	.	111	90	-25
Cn1c(=O)sc2cc(NC(=O)C(C)(C)C)ccc21	101	.	.	0
Cc1ccc(C)c(-n2cc[nH]c(=O)c2=O)c1	103	.	.	-36
Cc1ccc(-n2ncc3c(N4CCN(c5ccccc5)CC4)ncnc32)cc1C	108	115	87	.
CC(SCC(=O)Nc1ccc(F)cc1)C(=O)O (stereo not drawn)	.	96	96	-4
CCC(=O)Nc1ccccc1-c1nnc(SCC(=O)Nc2c(CC)cccc2CC)[nH]c1=O	97	.	.	1
CCCCn1c(=O)c2oc3ccccc3c2n(Cc2cccc(C)c2)c1=O	101	107	93	.
CC(C)c1nn2c(=O)cc(COC(=O)C3CCCCC3)nc2s1	104	111	91	.
C=CCOC(=O)c1cc(-c2ccc(/C=C3/NC(=S)NC3=O)o2)ccc1Cl	160	83	58	-23
O=C(c1ccc([N+](=O)[O-])cc1)N(Cc1ccco1)c1ccccn1	102	103	83	-75
CSc1nnc2c3ccccc3n(Cc3ccccc3)c2n1	106	97	101	-2
O=C(OCc1cccc(C(F)(F)F)c1)C1COc2ccccc2O1 (stereo not drawn)	.	85	91	-3
CC(=O)Nc1ccc(S(=O)(=O)n2cc(C)nc2-c2ccccc2)cc1	105	108	93	-12
CCN1C(=O)C(=Nc2ccc(S(=O)(=O)N3CCOCC3)cc2)c2ccccc21	.	96	91	-35
COc1ccc(NNC(=O)C(O)(c2cccc(OC)c2)c2cccc(OC)c2)cc1	104	101	89	-20
CCN(C1CCS(=O)(=O)C1)S(=O)(=O)c1cc(N2C(=O)CCS2(=O)=O)ccc1OC (stereo not drawn)	99	.	.	-5
(next part)
SMILES	GIV-Gai inh	Sa growth inh	Sa growth inh second temp	HCMV UL50-53 inh
N/C(Cc1csc2ccccc12)=N\O	97	105	94	-8
COc1ccc2oc3cc(C)nc(-c4ccccc4)c3c2c1	100	98	83	.
CCOC(=O)c1c(NC2=NS(=O)(=O)c3ccccc32)sc(C)c1C	95	.	.	6
O=S(=O)(c1ccc(-c2cc(C(F)(F)F)on2)s1)N1CCC(O)(c2ccc(Cl)cc2)CC1	113	108	95	-8
CCNC(=O)c1ccc2c(c1)sc1nc(-c3ccccc3)cn12	109	100	48	.
COc1ccc2cc3c(nc2c1)N(C(C)=O)CC3	107	.	.	-12
CCn1ccc(C(=O)Nc2nccs2)n1	103	118	88	.
CC(NC(=O)c1cccnc1Cl)c1nc(-c2ccncc2)n[nH]1 (stereo not drawn)	100	94	80	-6
Cc1ccc(S(=O)(=O)c2ccc(C(=O)Nc3ccc(Br)c(C)c3)cn2)cc1C	106	.	.	0
C[C@@H]1CC[C@H]2C(C)(C)C3CC12CCC3(C)O (stereo partly drawn)	106	100	81	-24
CC(C(O)c1ccc(O)cc1)N1CCC(Cc2ccccc2)CC1 (stereo not drawn)	99&101	89&67	88&82	-8&-37&21&-4&3
CCOc1ccc(CN2CCCC2c2ccc(Cl)cc2)cc1OC (stereo not drawn)	102	.	.	-20
CN(C)S(=O)(=O)c1ccc(C(=O)Nc2ccnn2C2CCCCC2)cc1	.	97	91	4
O=C1CCCC(O)=C1N=Nc1ccc2ncsc2c1	.	96	92	-108
CCOC(=O)c1ccc(-c2nnc(COc3cccc(C)c3)o2)cc1	100	90	82	-26
O=C(O)Cc1ccc(O)cc1	98	123	79	.
O=C(Cn1c(=O)n(Cc2nc(-c3ccccc3)no2)c(=O)c2cc3c(cc21)OCO3)Nc1cccc(C(F)(F)F)c1	104	99	88	.
Cc1nc2nc[nH]n2c(=O)c1NC(=O)NC1CCCC1	105	84	90	-24
COc1ccc(-c2csc(-c3ccc(OC)cc3)n2)cc1	97	97	93	-16
CCOC(=O)c1c(C)noc1-c1csc(Nc2ccc(Cl)cc2)n1	96	81	52	-2
COC(=O)c1ccc(COc2ccc(/C=N\O)cc2)o1	111	80	68	-13
O=C(/C=C/c1ccc(Br)cc1)Nc1ccccn1	111	106	102	11
Cc1sc(NC(=O)C(C)Oc2ccc(Cl)cc2Cl)c(C(N)=O)c1C (stereo not drawn)	.	102	95	0
CC(=O)N1CCN(CC(O)COc2ccc(Br)cc2)CC1 (stereo not drawn)	106	122	107	0
CC(=O)Nc1ccc(NC(=O)C2Cc3ccccc3N2C(=O)c2ccccc2)cc1 (stereo not drawn)	100	91	92	.
Fc1ccc(C(c2nnc(-c3ccccc3)o2)N2CCc3ccccc3C2)cc1 (stereo not drawn)	108	86	84	-4
CCS(=O)(=O)c1ncc(N(Cc2ccco2)Cc2ccccc2F)c(C(=O)Nc2cccc(Cl)c2)n1	99	95	87	-29
Cc1cccc(N(CC(=O)N(C)Cc2ccccc2)S(=O)(=O)c2ccccc2)c1C	107	100	86	-28
Cc1ccc(CNc2ccc(N3CCOCC3)cc2)cc1	104	101	86	-5
Cn1c(=O)c2c(nc(NCc3ccccc3)n2CC(O)COc2ccc(Cl)cc2)n(C)c1=O (stereo not drawn)	105	.	.	-4
Cc1ccc(C(=O)CCCn2nnc(-c3ccncc3)n2)cc1C	108	69	80	11
Cc1cccc(CC(=O)NCCc2nc(-c3ccccc3)n[nH]2)c1	94	.	.	-24
CC1=C(C(=O)OCC2CCCCC2)C(c2ccc(Cl)cc2Cl)CC(=O)N1 (stereo not drawn)	103	103	88	-5
Cc1ccc2c(=O)cc(C(=O)Nc3cccc(C(F)(F)F)c3)oc2c1C	102	97	90	-25
CCCc1cc(=O)[nH]c(-n2nc(C)cc2NC(=O)c2cc(OC)cc(OC)c2)n1	101	.	.	-16
C1CCC(CN2CCOCC2)CC1	99	102	106	-8
O=C(O)CSc1ncnc2c1nnn2Cc1ccccc1F	105	95	89	-35
Cc1ccc(CNc2c3c(nc4nc(C)nn24)CCC3)cc1	110	.	.	-3
CC1Sc2ccc(Cl)cc2-c2nc(-n3cccc3)ncc21 (stereo not drawn)	100	92	88	-8
O=C(Nc1nc2ccccc2s1)c1cncc(NS(=O)(=O)c2ccc(Cl)cc2)c1	102	.	.	-28
CC(C)n1ncc2c(C(=O)N3CCc4ccccc43)cc(C3CC3)nc21	.	82	94	-31
CC(C)(C(=O)Oc1ccccc1)S(=O)(=O)c1ccc(C(F)(F)F)cn1	102	96	87	-20
CCN1/C(=C/C=C2\SC(=S)N(C)C2=O)Oc2ccccc21	162	88	81	-50
CC(C)CN(CCCNC(=O)CN1N=C(c2ccccc2)CCC1=O)CC(C)C	101	115	98	.
COc1ccccc1N1C(=O)N(c2ccc(Cl)cc2)C2CS(=O)(=O)CC21 (stereo not drawn)	100	.	.	10
CC(C)NC(=O)N1CCCC(c2cccc(C(=O)N(C)C)c2)C1 (stereo not drawn)	105	.	.	-26
Cc1cccc(CN2C(=O)CSc3nc(C)cc(C)c32)c1	105	104	88	.
COc1cc(=O)n(-c2ccc(C)cc2)nc1C(=O)Nc1cc(Cl)ccc1O	103	.	.	-27
O=C(O)CN(CC(=O)O)c1ccc2cccc(O)c2n1	103	105	76	-7
O=C(c1ccccc1)N1CCN(c2nc(-c3ccccc3)c3ccccc3n2)CC1	99	.	.	-8

Part of the list above, in markdown:
| molecule | GIV-Gai inh | Sa growth inh | Sa growth inh second temp | HCMV UL50-53 inh |
| --- | --- | --- | --- | --- |
| COc1ccccc1N1C(=O)N(c2ccc(Cl)cc2)C2CS(=O)(=O)CC21 (stereo not drawn) | 100 | . | . | 10 |
| CC(C)NC(=O)N1CCCC(c2cccc(C(=O)N(C)C)c2)C1 (stereo not drawn) | 105 | . | . | -26 |

Further entries.
SMILES	GIV-Gai inh	Sa growth inh	Sa growth inh second temp	HCMV UL50-53 inh
CCCN(CCC)S(=O)(=O)c1ccc(C(=O)Nc2nnc(-c3ccccc3)s2)cc1	102	.	.	-1
Cc1ccccc1-c1cc2nccc(-c3cc(Cl)ccc3O)n2n1	103&95	86	89	9&-18
CC(NS(=O)(=O)c1ccc2c(c1)CCN2C(=O)CCCC(=O)O)c1ccccc1 (stereo not drawn)	105	107	91	5
COc1cc(OC)c(OC)cc1/C=C/c1nc2ccccc2c(=O)n1-c1ccc(Br)c(C)c1	105	129	97	.
CCOC(=O)c1c(-c2ccccc2)csc1NC(=O)c1cc(-c2ccc(F)cc2)on1	111	106	92	-6
Cc1c2cn[nH]c(=O)c2c(C)n1Cc1ccccc1	101	88	75	3

Sorted by count of non-hydrogen atoms (low to high): some entries from above
SMILES	GIV-Gai inh	Sa growth inh	Sa growth inh second temp	HCMV UL50-53 inh
Cc1c2cn[nH]c(=O)c2c(C)n1Cc1ccccc1	101	88	75	3
O=C(O)CN(CC(=O)O)c1ccc2cccc(O)c2n1	103	105	76	-7
CC1Sc2ccc(Cl)cc2-c2nc(-n3cccc3)ncc21 (stereo not drawn)	100	92	88	-8
CC(C)NC(=O)N1CCCC(c2cccc(C(=O)N(C)C)c2)C1 (stereo not drawn)	105	.	.	-26
Cc1ccccc1-c1cc2nccc(-c3cc(Cl)ccc3O)n2n1	103&95	86	89	9&-18
CC(C)(C(=O)Oc1ccccc1)S(=O)(=O)c1ccc(C(F)(F)F)cn1	102	96	87	-20
COc1ccccc1N1C(=O)N(c2ccc(Cl)cc2)C2CS(=O)(=O)CC21 (stereo not drawn)	100	.	.	10
COc1cc(=O)n(-c2ccc(C)cc2)nc1C(=O)Nc1cc(Cl)ccc1O	103	.	.	-27
CC(NS(=O)(=O)c1ccc2c(c1)CCN2C(=O)CCCC(=O)O)c1ccccc1 (stereo not drawn)	105	107	91	5
O=C(c1ccccc1)N1CCN(c2nc(-c3ccccc3)c3ccccc3n2)CC1	99	.	.	-8
CCOC(=O)c1c(-c2ccccc2)csc1NC(=O)c1cc(-c2ccc(F)cc2)on1	111	106	92	-6
COc1cc(OC)c(OC)cc1/C=C/c1nc2ccccc2c(=O)n1-c1ccc(Br)c(C)c1	105	129	97	.
